Source: PubChem
UUG fidelity: modulators of start codon recognition fidelity in yeast; 0.13% of 350,000 active; S. cerevisiae UUG-firefly luciferase reporter, luminescence/redox ratio; activity score, % at 18.7 µM;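 active = replicate mean at a twofold rise or more, about +100% in these data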;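 note: firefly luciferase made from a UUG start codon reports start codon fidelity; reporter light over untreated wells divided by growth signal over untreated wells; some hits fall short of that in this replicate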
Rce1 inh: yeast Ras-converting enzyme inhibition. Q03530. yeast membranes, quenched prenylated peptide cleavage fluorescence. calls only. 0.27% of 290,000 active. AID 2563;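 active = fall in fluorescence gain of 50% or more versus controls, with final raw signal at or below 3038400; inconclusive = same 50% fall but final raw signal above 3038400; inactive = fall in fluorescence gain under 50%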;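 note: plate controls were neutral control wells for no effect and wells lacking membranes for full effect; tested at 10 µM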
Target sequence (Q03530 whole entry, looked up): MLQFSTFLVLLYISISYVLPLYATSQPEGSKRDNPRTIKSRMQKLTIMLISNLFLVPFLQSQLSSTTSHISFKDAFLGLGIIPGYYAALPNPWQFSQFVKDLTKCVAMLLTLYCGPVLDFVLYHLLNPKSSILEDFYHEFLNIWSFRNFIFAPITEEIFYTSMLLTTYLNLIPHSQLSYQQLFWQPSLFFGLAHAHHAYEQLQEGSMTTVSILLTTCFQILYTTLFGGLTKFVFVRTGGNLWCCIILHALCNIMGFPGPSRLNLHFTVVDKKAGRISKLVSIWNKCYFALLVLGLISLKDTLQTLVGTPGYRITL
HIV Env fusion: inhibitors of HIV Env-mediated cell fusion; HeLa-JRFL Env/CEM21 cell fusion, luciferase; inhibition, % at 12.3 µM; 1.1% of 360,000 active; AID 651610;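 active = mean replicate inhibition score of at least 50 and every replicate individually at or above 50; inconclusive = only one of the two criteria met; inactive = mean below 50 and not all replicates reaching 50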;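 note: 0% = plate neutral controls and 100% = maraviroc near 300 nM; one replicate is shown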
eIF4H inh: inhibitors of RNA binding by human eIF4H; Q15056; eIF4H fluorescence polarization binding assay; inhibition, % at 35 µM; 0.94% of 290,000 active; AID 2012;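 active = 50% or more with normal probe brightness, or confirmed in later tests; inconclusive = above 50% with abnormal brightness, or retests that disagree; inactive = below 50% or failed in later tests; about a fifth of its hits are not listed in these tables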;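 note: calls also rest on retests at 20 µM and on dose response follow-up; 0% = protein and probe with vehicle and 100% = probe without protein; strong numbers were not always called active; many hits fall short of the cut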
MT1-MMP act inh: MT1-MMP (human) activation inhibition | P50281 | HT1080 RFP-PRO-GFP cells, GFP/RFP ratio fluorescence, overnight; percent of plate control window, DMSO zero | GFP/RFP ratio change, % at 20 µM | 0.061% of 360,000 active | AID 651647;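 active = GFP/RFP ratio change of at least 30% with cell ATP level not reduced by more than half and red fluorescence within 50% of control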; note: strong numbers were not always called active
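Test system: HT1080 RFP-PRO-GFP cells; Benchmarks: DMSO and RFP-L50D-GFP cell wells; Timing: cells overnight before dosing, compound overnight, 37 °C, 5% CO2; Compound: one 20 µM compound dose with 1% DMSO; Read-out: GFP/RFP fluorescence ratio.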
CSC inhib: blocks cancer stem cells; 1.1% of 300,000 active; cancer stem cell-like cells viability, luminescence; inhibition, % at 7.5 µM; AID 2717;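 active = mean at 75% or more and at least half the replicates too; inconclusive = mean and replicates disagree; tested in HMLE shEcad cells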;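 note: 0% = median of negative and 100% = median of positive control wells; the first replicate is given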
PABP FP inh: blocks human PABP binding to poly(A) RNA; fluorescence polarization; inhibition, % at 35 µM; 1% of 290,000 active;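 active = 50% or more with normal probe brightness, or confirmed in later tests; inconclusive = above 50% with abnormal brightness, or retests that disagree; inactive = below 50% or failed in later tests; about a fifth of its hits are not listed in these tables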;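 note: calls also rest on retests at 20 µM and on dose response follow-up; controls were probe without protein and protein plus probe with vehicle; some compounds called inactive have numbers as strong as hits; many hits fall short of the cut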
MT1-MMP act inh RFP: also measured in MT1-MMP act inh; calls as there; RFP signal change, %; measured here: RFP expression control read;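 0 = vehicle wells; hits needed this value within 50% of zero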
Active calls of the source: *; i = inactive; ? = inconclusive; . = not tested or not shown; & = joins results of further samples.

SMILES	UUG fidelity	Rce1 inh	HIV Env fusion	eIF4H inh	MT1-MMP act inh	MT1-MMP act inh RFP	CSC inhib	PABP FP inh
O=C(Nc1ccc(CN2CCOCC2)cc1)c1cccc(F)c1	-25	i	-35	-3	-3	-2	.	10
CC1CN(C(=O)CSc2nnc(-c3ccncc3)n2-c2ccccc2)CC(C)O1 (stereo unspecified)	-6	i	-1	5	-3	-1	-5	8
CCC(C)NC(=O)c1cc(-c2cccs2)nc2ccccc12 (stereo unspecified)	-37	i	-20	0	-2	0	-6	14
OCc1nc2ccccc2n1CCCc1ccccc1	-6	.	21	.	-1	1	.	.
COc1ccc(C2=Nn3c([n+](C)c4ccccc43)SC2)cc1	.	i	30	-2	-20	-26	-9	2
CC(=O)N1CCc2cc(S(=O)(=O)NC3CCCc4ccccc43)ccc21 (stereo unspecified)	-11	.	.	0	10	-8	2	-8
CCOC(=O)CN1C(=O)/C(=C/c2c(F)cccc2Cl)Oc2ccccc21	.	i	5	7	-3	-2	16	-3
CCOC(=O)Cc1nn(CC)c(=O)c2ccccc12	.	i	-2	0	4	6	-11	-11
O=C(OCC1CC(c2ccccc2Cl)=NO1)c1ccc(Br)cc1 (stereo unspecified)	.	i	.	-17	1	4	-10	-8
Cc1ccnc(Nc2nc(-c3ccc(Cl)cc3)cs2)c1	-11	.	-28	-4	-5	-23	8	-2
c1ccc2c(c1)CCCN2c1nc(N2CCOCC2)nc(N2CCOCC2)n1	0	i	-6	-19	-2	-6	-1	13
COc1ccc(-c2ccc([C@H]3[C@H]4C=CC[C@@H](C)[C@@H]4C(=O)N3Cc3ccccc3)c(F)c2)cc1	-11	i	17	-8	-1	-8	66	-5
CCOC(=O)C1=C(CP(=O)(c2ccccc2)c2ccccc2)NC(=O)NC1c1ccc(OC)cc1 (stereo unspecified)	.	i	-20	3	4	2	-4	15
O=C(c1ccc(S(=O)(=O)N2CCOCC2)cc1)N1CCc2ccccc2C1	10	i	.	-3	1	7	15	4
Cc1ccccc1NC(=O)C1Cc2ccccc2CN1C(=O)c1ccco1 (stereo unspecified)	5	i	-17	5	0	3	-1	16
CC(=O)Nc1cccc(Oc2ncccc2[N+](=O)[O-])c1	-1	i	7	-1	3	4	4	-1
CN1CCc2nc(NC(=O)COc3ccc4ccccc4c3)sc2C1	.	i	29	-1	-8	-3	27	-1
COc1ccc(S(=O)(=O)N(C)C[C@@H]2OCCCC[C@@H](C)Oc3ccc(NC(=O)NC(C)C)cc3C(=O)N([C@H](C)CO)C[C@@H]2C)cc1	-4&15	.	-35	.	1	7	.	.
O=C(O)CCCC(=O)NCc1ccccn1	-13	i	-25	-3	1	4	-4	-11
Cc1csc(SCC(=O)Nc2ccc(F)cc2Cl)n1	-10	.	.	.	1	2	6	.
COc1ccc(-n2c(C)nc3cc(C(=O)NCCN4CCOCC4)ccc32)cc1	-1	i	1	-3	2	1	.	-3
Cc1ccc(C)c(S(=O)(=O)NCC(c2ccc3c(c2)OCO3)N2CCOCC2)c1 (stereo unspecified)	4	i	50	.	7	-2	9	.
COc1ccc(C(=O)Nc2ccc(Cl)cc2C(=O)NCCN2CCOCC2)cc1	-8	i	-26	-3	2	7	-2	-2
COc1ccc(S(=O)(=O)N(C)C)cc1NC(C)C(=O)Nc1cccc(C#N)c1 (stereo unspecified)	.	i	-5	4	3	4	-1	10
N#Cc1ccc(CN2CCN(C(=O)CNC(=O)Cc3cccc4ccccc34)CC2)cc1	-11	.	71*	.	-9	-28	.	.
CCOC(=O)C1=C(O)C(Nc2nc3ccccc3s2)(C(F)(F)F)N=C1C (stereo unspecified)	4	i	-8	-6	-5	-3	-8	-6
Cc1ccc(NC(=O)C(C)c2cccc(C(=O)c3ccccc3)c2)cc1O (stereo unspecified)	.	i	43	6	-4	-22	12	10
CCOC(=O)c1oc2ccccc2c1NC(=O)c1ccc(Cl)s1	13	i	-18	4	-3	1	-7	-7
CC1CN(CCOCCSc2ccccc2)CC(C)O1 (stereo unspecified)	.	i	-47	1	3	0	11	5
COc1cc(OC)c(NC(=O)[C@@H]2CCC(=O)N2C2OC(=O)c3c2ccc(OC)c3OC)cc1Cl (stereo partly specified)	-5	i	.	-4	6	5	7	2
COCCNC(=S)N(CCCO)Cc1cc2cc3c(cc2[nH]c1=O)OCCO3	-14	i	-14	4	-1	5	2	2
CCN(CC(=O)NCc1cccs1)C(=O)/C=C/c1cc(OC)c(OC)c(OC)c1	16	.	-4	.	0	-4	.	.
Cc1ccccc1S(=O)(=O)NC(=O)C1(C)CCN1C(=O)Cc1ccccc1Cl (stereo unspecified)	-3	.	-7	.	-4	-2	.	.
O=C(Nc1ccc(S(=O)(=O)N2CCOCC2)cc1)c1ccccc1	-11	i	.	-8	-1	-1	-3	13
COc1ccccc1N1CCN(C(=S)NC(=O)/C=C/c2ccc(F)cc2)CC1	-7	i	2	6	-2	-6	-3	-3
Cc1cc(C)cc(NC(=O)C(OC(=O)c2ccc([N+](=O)[O-])o2)c2ccccc2)c1 (stereo unspecified)	-6	i	.	-8	0	-2	5	8
Cc1ccc(C(=O)NCC(=O)OCC(=O)c2ccc(Cl)s2)cc1	.	i	-97	.	0	5	-7	.
CC1(C(=O)NS(=O)(=O)c2ccc(Cl)cc2)CCN1C(=O)Cc1ccc(-c2ccccc2)cc1 (stereo unspecified)	-11	.	0	.	-1	3	.	.
Clc1ccc2nc(N3CCCCC3)sc2c1	.	i	.	-3	3	-7	-4	0
COc1ccc(CNC(=O)COC(=O)c2ccc(Br)o2)cc1	3	.	1	.	2	1	-2	.
CN(C)CCNC(=O)C(=O)Nc1cc2c3c(c1)CCC(=O)N3CCC2	-13	i	-12	-9	1	1	-2	-5
O=C(COC(=O)CCS(=O)(=O)c1ccccc1)NC(=O)c1ccc(OC(F)F)cc1	-9	i	-2	.	0	4	-9	.
O=C(Nc1nnc(C2=COCCO2)o1)c1ccc(F)cc1	-24	i	-17	5	4	9	19	-1
Cc1ccc2c(c1)COc1c3ccc(C(=O)O)cc3nn1-2	-89	i	-7	14	1	4	41	16
CCN(Cc1ccccc1)C(=O)Cn1cc(S(=O)(=O)NC)c(S(=O)(=O)NC)c1	-2	i	14	2	-1	2	-11	10

Not a retest: 5 of the compounds above.
SMILES	UUG fidelity	Rce1 inh	HIV Env fusion	eIF4H inh	MT1-MMP act inh	MT1-MMP act inh RFP	CSC inhib	PABP FP inh
COCCNC(=S)N(CCCO)Cc1cc2cc3c(cc2[nH]c1=O)OCCO3	-14	i	-14	4	-1	5	2	2
CCN(CC(=O)NCc1cccs1)C(=O)/C=C/c1cc(OC)c(OC)c(OC)c1	16	.	-4	.	0	-4	.	.
Cc1ccccc1S(=O)(=O)NC(=O)C1(C)CCN1C(=O)Cc1ccccc1Cl (stereo unspecified)	-3	.	-7	.	-4	-2	.	.
O=C(Nc1ccc(S(=O)(=O)N2CCOCC2)cc1)c1ccccc1	-11	i	.	-8	-1	-1	-3	13
COc1ccccc1N1CCN(C(=S)NC(=O)/C=C/c2ccc(F)cc2)CC1	-7	i	2	6	-2	-6	-3	-3

Next section
SMILES	UUG fidelity	Rce1 inh	HIV Env fusion	eIF4H inh	MT1-MMP act inh	MT1-MMP act inh RFP	CSC inhib	PABP FP inh
CCCCCOC(=O)CSc1n[nH]c(=O)[nH]c1=O	-4	i	30	-5	2	-1	-4	-7
CCN1CCN(C(=O)CN(c2ccc(F)cc2)S(=O)(=O)c2ccc(OC)c(OC)c2)CC1	6	i	-21	-1	-4	-3	-12	-1
N#C/C(=C\c1ccc(F)cc1)C(=O)Nc1ccccn1	-12	i	10	-1	-2	1	-6	-7
O=C(Nc1ccc(N2CCOCC2)cc1)c1cccc(S(=O)(=O)N2CCC(Cc3ccccc3)CC2)c1	-13	i	.	-9	-11	-9	8	-6
N#Cc1ccccc1NC(=O)CSc1nnc(-c2ccccc2)n1-c1ccccc1	-13	i	-25	-15	-6	-4	13	0
Cc1ccccc1OCC(=O)OC(C)CN1CCN(C)CC1 (stereo unspecified)	-4	.	-7	-10	7	9	8	12
CCOC(=O)C(C)N1C(=O)S/C(=C/c2cc(C)n(-c3ccncc3)c2C)C1=O (stereo unspecified)	-3	i	8	11	5	0	24	-5
COc1ccc(C(=O)N/C(=C\c2cccc([N+](=O)[O-])c2)C(=O)Nc2cccc(C(=O)O)c2)cc1	.	i	-8	-2	2	6	-8	11
[O-]/C(=C(\C(=S)Nc1cccc2ccccc12)[n+]1ccccc1)c1ccc2c(c1)OCCO2	-17	i	?	6	5	3	-7	17
Fc1ccc(COc2ccc3ccccc3c2CNc2nn[nH]n2)cc1	.	i	11	10	5	-7	.	-6
CCC(C)[C@H]1CN=C(N)N1CCc1cccc2ccccc12 (stereo partly specified)	-4	i	-5	.	-2	-3	-17	.
Cc1ccc(N(CC(=O)N2CCCC2)S(C)(=O)=O)c(C)c1	-15	i	-425	-3	-1	-1	-6	-7
CC(C)(C)OC(=O)NCc1ccc(CNC(=O)c2nc[nH]c2C(=O)N2CCN(C(=O)OC(C)(C)C)CC2)cc1	-3	.	-2	.	1	-25	-17	.
CCCCOC(=O)Nc1nnc(SCCOc2ccc(C)cc2)s1	-10	i	11	28	4	5	-5	7
O=C(NCc1cc(Cl)cc(Cl)c1)c1csc([C@@H]2O[C@H](CO)[C@H](O)[C@H](O)[C@H]2O)n1	1	.	-17	.	2	4	.	.

Next part; the last 5 above are carried over.
SMILES	UUG fidelity	Rce1 inh	HIV Env fusion	eIF4H inh	MT1-MMP act inh	MT1-MMP act inh RFP	CSC inhib	PABP FP inh
CCC(C)[C@H]1CN=C(N)N1CCc1cccc2ccccc12 (stereo partly specified)	-4	i	-5	.	-2	-3	-17	.
Cc1ccc(N(CC(=O)N2CCCC2)S(C)(=O)=O)c(C)c1	-15	i	-425	-3	-1	-1	-6	-7
CC(C)(C)OC(=O)NCc1ccc(CNC(=O)c2nc[nH]c2C(=O)N2CCN(C(=O)OC(C)(C)C)CC2)cc1	-3	.	-2	.	1	-25	-17	.
CCCCOC(=O)Nc1nnc(SCCOc2ccc(C)cc2)s1	-10	i	11	28	4	5	-5	7
O=C(NCc1cc(Cl)cc(Cl)c1)c1csc([C@@H]2O[C@H](CO)[C@H](O)[C@H](O)[C@H]2O)n1	1	.	-17	.	2	4	.	.
Cc1c(CN2CCN(CC(C)C)C(CCO)C2)[nH]c2ccc(Cl)cc12 (stereo unspecified)	13	i	24	-7	1	-2	29	-10
COC(=O)c1ccc(S(=O)(=O)N2C3CCC2CC(NC(=O)NC2CCCCC2)C3)cc1 (stereo unspecified)	-18	i	6	-8	4	-2	-2	-1
CC1(C(=O)Nc2ccc3ccccc3c2)CCC(=O)N1C1CCN(Cc2ccccc2)CC1 (stereo unspecified)	-9	.	-20	.	-1	1	.	.
CN(C)CCNC(=O)C(=O)c1c(-c2ccccc2)cc2ccccn12	-12	i	2	-5	6	8	-8	1
CSCCC(NC(=O)COc1ccccc1)C(=O)N1CCN(C(C)=O)CC1 (stereo unspecified)	-16	i	.	1	2	5	.	4
c1ccc(Cn2nnnc2C(c2cccs2)N2CCc3ccccc3C2)cc1 (stereo unspecified)	-8	.	.	3	-15	-14	24	9
NS(=O)(=O)c1ccc(SCc2ccccc2)nc1	-1	i	-4	.	-2	-4	-12	.
